# PrP 5UTR inh – suppresses PrP 5' UTR mRNA reporter expression. cell-based PrP 5' UTR mRNA reporter, plate reader. inhibition, % (concentration not given with the values). actives 0.35% (n = 340,000);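 active means every replicate at 50% or more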;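 further: 0 = median of the neutral control wells; tested in H4 reporter cells; numbers are from one replicate; inactives centre near -14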
# Mtb hypoxia rep – inhibitors of hypoxia-regulated fluorescent reporter in Mycobacterium tuberculosis. M. tuberculosis hypoxia-regulated fluorescent reporter, fluorescence. fluorescence inhibition, % (concentration not given with the values). actives 0.1% (n = 300,000);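 active means 35 to 45% if threefold the growth effect, above 45% if 1.5-fold the growth effect; inactive means the rest, general growth blockers included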;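 further: wells of about 50 µL received 100 nL stock; 0% = vehicle wells and 100% = reference inhibitor wells; whole bacteria with a GFP reporter of the hypoxia response; strong numbers were not always called active; many hits fall short of the cut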
# Bead autofluor – counter-screen for toxin protease inhibitors: compound fluorescence; compound autofluorescence counterscreen, microsphere flow cytometry; active compounds read high; fluorescence intensity (test concentration not listed); actives 3.1% (n = 360,000); AID 624483;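 active means at least 3 SD above the mean of all compounds, about 16000 in these data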;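 further: 100 nL of 1 mM stock went into each well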
# BJeLR lethal – BJeLR cell viability loss; BJeLR (HRASV12) viability, CellTiter-Glo ATP luminescence, 48 h; reference of the scale not given here; inhibition, % (test concentration not listed); actives 0.17% (n = 300,000);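 active means replicate mean above 50%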;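 further: 50 nL library stock added to about 25 µL; numbers are from one replicate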
# Sa ugtP lethal – growth inhibition of S. aureus ugtP deletion strain; S. aureus RN4220 ugtP deletion, OD600 growth, 16 h; some inactives read as strong as hits; growth inhibition, % (concentration not given with the values); actives 0.54% (n = 330,000);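 active means z-score under -3 and OD600 up to 0.15 on both plates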;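 further: plate controls were untreated wells for no effect and antibiotic for full effect; wells of about 80 µL received 100 nL stock; the first replicate is given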
# RN4220 kill – kills Staphylococcus aureus RN4220; S. aureus RN4220 growth, OD600, 16 h; inhibition, % (concentration not given with the values); actives 0.33% (n = 330,000); AID 1259311;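 active means z-score of -3 or lower and OD600 up to 0.18 on both plates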;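 further: plate controls were untreated cells for no effect and reference antibiotic for full effect; stock transfer was 100 nL into about 80 µL; one replicate is shown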
# Mtb hypoxia rep growth – second read-out of Mtb hypoxia rep, no call of its own (marks repeat the call); growth inhibition, %; measured here: M. tuberculosis growth (absorbance);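 0% = vehicle and 100% = reference antibiotic; read after six days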
# * = called active by the depositor; . = not tested or not shown.
1: CCS(=O)(=O)N1CCC(C(=O)NCCCOC)CC1
2: Cc1ccc(N2CC(C(=O)NCCS(=O)(=O)N3CCN(c4ccccc4)CC3)CC2=O)cc1C (centres undefined)
3: CCCCN(CCCC)CC(O)CN(c1cc([N+](=O)[O-])ccc1OC)S(=O)(=O)c1ccccc1 (centres undefined)
4: CCCCOc1ccc(CSc2ncn[nH]2)cc1
5: O=C(/C=C/c1ccc(N2CCCCC2)c([N+](=O)[O-])c1)c1ccc(S(=O)(=O)N2CCCC2)cc1
6: COCC(C)n1c(SCc2nc(N)nc(Nc3ccccc3C)n2)nc2ccccc2c1=O (centres undefined)
7: CCOC(=O)N1CCN(C(=O)CN(C)S(=O)(=O)c2ccc(OC)c(OC)c2)CC1
8: Nc1ccc(C(=O)Nc2ccc3nc(-c4ccncc4)[nH]c3c2)cc1
9: O=C1NC(=S)SC1=Cc1cc(Br)ccc1O
10: CCN(CC)S(=O)(=O)c1ccc(N2CCCC2)c(NC(=O)Cc2c(F)cccc2Cl)c1
compound no.	1	2	3	4	5	6	7	8	9	10
Bead autofluor	9207	5969	9258	4472	1931	4739	2893	4847	4014	5026
Sa ugtP lethal	2	-2	.	9	-3	-11	0	12	39	-7
Mtb hypoxia rep growth	1	1	.	2	.	.	.	20	10	-5
RN4220 kill	2.9	2.6	.	9.4	-1.5	0.0	3.3	1.0	31	-0.1
Mtb hypoxia rep	15	8	.	12	.	.	.	26	10	-9
BJeLR lethal	0	-6	3	-7	-10	2	.	0	.	7
PrP 5UTR inh	8	-19	2	-35	-5	4	-42	-4	-1	-12

11: Cc1nc2oc3c(NCc4ccccn4)ncnc3c2c2c1COC(C)(C)C2
12: CCCOc1ccc(C(CC(=O)O)NC(=O)c2cccs2)cc1 (centres undefined)
13: O=C(OC(C(=O)Nc1cccc(C(F)(F)F)c1)c1ccccc1)C1CCCCC1 (centres undefined)
14: C[C@]12CCC3C(CC[C@@H]4[C@H]5O[C@H]5CC[C@]34C)C1CC[C@@H]2O (some centres undefined)
15: CSc1ccc2[nH]c(=O)cc(C)c2c1
16: COc1cc(CNC2CCCCCC2)cc(OC)c1O
17: Cc1cc(=O)oc2cc(NC(=O)Cc3ccccc3)ccc12
18: Cc1ccc(OCc2nc3ccccc3[nH]2)cc1
19: CC1CCCN(S(=O)(=O)c2ccc3[nH]c4c(c3c2)CCCC4)C1 (centres undefined)
20: O=C(COc1ccc2ccccc2c1Br)N1CCCCC1
compound no.	11	12	13	14	15	16	17	18	19	20
Bead autofluor	.	7854	2324	4369	2471	10219	3799	2005	4489	6432
Sa ugtP lethal	3	5	-28	-1	0	-4	3	9	-57	-5
Mtb hypoxia rep growth	2	3	7	8	.	3	5	-6	0	10
RN4220 kill	-1.9	-0.4	-14	5.7	-3.4	8.3	-0.7	0.6	-17	4.0
Mtb hypoxia rep	5	6	6	-2	.	18	-2	-1	9	17
BJeLR lethal	-3	-12	.	.	-11	7	1	10	-11	0
PrP 5UTR inh	-11	0	-22	-5	11	-20	-34	-122	-9	-64

# Given field by field: four of the compounds above
15) CSc1ccc2[nH]c(=O)cc(C)c2c1
  Bead autofluor: 2471	Sa ugtP lethal: 0	Mtb hypoxia rep growth: .	RN4220 kill: -3.4	Mtb hypoxia rep: .	BJeLR lethal: -11	PrP 5UTR inh: 11
16) COc1cc(CNC2CCCCCC2)cc(OC)c1O
  Bead autofluor: 10219	Sa ugtP lethal: -4	Mtb hypoxia rep growth: 3	RN4220 kill: 8.3	Mtb hypoxia rep: 18	BJeLR lethal: 7	PrP 5UTR inh: -20
17) Cc1cc(=O)oc2cc(NC(=O)Cc3ccccc3)ccc12
  Bead autofluor: 3799	Sa ugtP lethal: 3	Mtb hypoxia rep growth: 5	RN4220 kill: -0.7	Mtb hypoxia rep: -2	BJeLR lethal: 1	PrP 5UTR inh: -34
18) Cc1ccc(OCc2nc3ccccc3[nH]2)cc1
  Bead autofluor: 2005	Sa ugtP lethal: 9	Mtb hypoxia rep growth: -6	RN4220 kill: 0.6	Mtb hypoxia rep: -1	BJeLR lethal: 10	PrP 5UTR inh: -122

# More compounds
21: O=C(Cc1n[nH]c(=O)c2ccccc12)N/N=C/c1cc2c(cc1Cl)OCO2
22: Cc1ccc(S(=O)(=O)N2CCOCC2)c2nsnc12
23: COc1cccc(-c2ccc3ncnc(NCc4cc(C)cs4)c3c2)c1
24: CCC(NC(=O)c1cccc(Cn2nc(C)c([N+](=O)[O-])c2C)c1)c1ccc(C(C)C)cc1 (centres undefined)
25: CCN(CC)C(=O)CSc1nc2c(c(-c3cccnc3)c1C#N)CCCC2
26: O=C(OCC#CCSc1nnc(-c2cccc3ccccc23)o1)c1cc2ccccc2o1
27: CCOc1ccc(N(CC)S(=O)(=O)c2ccc3c(c2)oc(=O)n3C)cc1
28: Cc1cc(C)cc(N2C(=O)C3NN=C(C(=O)OCc4ccccc4)C3C2=O)c1 (centres undefined)
29: CNC1(c2nnnn2-c2c(C)cccc2C)CCOC(C)(C)C1 (centres undefined)
30: CC(=O)c1cccc(N(C(=O)c2ccco2)C(C(=O)NC2CCCC2)c2ccccc2F)c1 (centres undefined)
compound no.	21	22	23	24	25	26	27	28	29	30
Bead autofluor	3731	17116*	2844	22838*	2584	3597	17539*	6785	4327	3533
Sa ugtP lethal	.	5	-35	-4	-1	-6	8	.	-12	11
Mtb hypoxia rep growth	.	3	9	3	-7	30*	2	.	3	13
RN4220 kill	.	2.4	-21	1.3	-3.3	14	15	.	-2.8	-0.3
Mtb hypoxia rep	.	3	11	-6	-13	48*	2	.	0	9
BJeLR lethal	5	12	.	1	-6	.	0	-3	7	0
PrP 5UTR inh	2	-5	61*	3	7	-33	-5	-9	-19	-10

31: O=C(NC1CCCc2ccccc21)C1CCN(S(=O)(=O)c2cccc3nonc23)CC1 (centres undefined)
32: CCOc1ccc2[nH]c(=O)c(CN(CCN3CCOCC3)Cc3nnnn3C(C)(C)CC)cc2c1
33: Cc1cccc(OCC(=O)NNC(=O)Nc2cccc(Cl)c2)c1C
34: COc1cccc(/C(C)=N/N=C(\C)c2cccc(OC)c2)c1
35: Cc1oc2cc3oc(=O)c(CCC(=O)NCCCn4ccnc4)c(C)c3cc2c1C
36: CC(C)(C)c1cc(C(=O)NCCCn2ccnc2)cc(C(C)(C)C)c1
37: CCOC(=O)CN1C(=O)N[C@@H](c2cccc(C(F)(F)F)c2)[C@H](C(C)=O)[C@H]1C
38: Cc1cc(F)ccc1S(=O)(=O)Nc1ccccc1C(=O)Nc1ccccc1-c1nc2ccccc2[nH]1
39: Cc1ccc(C(=O)ON=C2CCSc3ccc(C)cc32)cc1
40: COC(=O)C(NC(=O)C(NC(=O)c1ccccc1)C(C)C)C(C)C (centres undefined)
compound no.	31	32	33	34	35	36	37	38	39	40
Bead autofluor	4536	7711	3609	3664	5594	3794	4438	11471	.	22539*
Sa ugtP lethal	-9	-5	6	.	3	3	.	31	5	-2
Mtb hypoxia rep growth	.	-18	.	.	.	1	.	4	5	13
RN4220 kill	-7.7	-3.8	3.6	.	2.1	0.6	.	2.4	6.9	6.8
Mtb hypoxia rep	.	-2	.	.	.	2	.	-4	3	5
BJeLR lethal	-11	3	-6	2	0	4	5	5	.	13
PrP 5UTR inh	-7	-29	-14	-69	-21	-5	-19	-7	.	-17

41: COc1ccc(-c2cnn3c(N)c(S(=O)(=O)C(C)(C)C)cnc23)cc1
42: COc1ccc(NC(=O)NCc2ccco2)c(OC)c1
43: Cc1[nH]c(=O)nc2c1CCC2
44: NC(=O)CC(NC(=O)c1ccc(Br)cc1)c1ccc(N2CCCCCC2)c([N+](=O)[O-])c1 (centres undefined)
45: CSc1ccccc1NC(=S)NCc1ccc(Cl)cc1
46: CS(=O)(=O)N1CCN(C(=O)COc2ccc3ccccc3c2)CC1
47: O=c1c2cc(N3CCOCC3)ccc2[nH]c(=S)n1CCc1ccccc1
48: CC1CC(=O)Nc2ccccc2N1C(=O)CSc1nnnn1C(C)C (centres undefined)
49: O=C(Cn1cc(S(=O)(=O)Cc2ccc([N+](=O)[O-])cc2)c2ccccc21)N1CCOCC1
50: COc1ccccc1C(=O)Nc1nsc(-c2ccccc2)n1
compound no.	41	42	43	44	45	46	47	48	49	50
Bead autofluor	21645*	2463	2205	2927	6485	4595	3205	8801	6522	3421
Sa ugtP lethal	8	4	6	-8	3	-2	4	1	2	11
Mtb hypoxia rep growth	1	12	0	9	2	-4	8	11	0	-4
RN4220 kill	0.5	-0.5	3.3	1.3	4.1	1.6	-17	2.5	1.3	3.5
Mtb hypoxia rep	3	-10	7	-1	10	1	1	-2	12	3
BJeLR lethal	2	11	4	1	6	-11	11	.	-15	-1
PrP 5UTR inh	-28	-6	-4	-17	-17	-10	-11	-4	-15	-38

# As entered above.
# Entry for no. 43 in BJeLR lethal: 4
# Entry for no. 32 in PrP 5UTR inh: -29
# Entry for no. 49 in Mtb hypoxia rep: 12
# Entry for no. 23 in RN4220 kill: -21
# Entry for no. 20 in PrP 5UTR inh: -64

# Going on with the list:
51: CCOc1cc(CNCCc2ccccc2)ccc1OCC(=O)NC(C)(C)C
52: Fc1ccc(-n2nnc(-c3ccccc3)n2)cc1
53: CCOC(=O)N1CCN(CC(O)COCc2ccccc2)CC1 (centres undefined)
54: COc1ccc(N(CC(=O)NC(C)c2ccccc2)S(=O)(=O)c2c(C)noc2C)cc1 (centres undefined)
55: CC[C@@]1(C(=O)OC)N[C@H](CN(C)S(=O)(=O)c2ccc(OC)cc2)[C@@H]2C(=O)N(C)C(=O)[C@@H]21
56: COC(=O)[C@@]1(Cc2ccc(OC)cc2)C2c3cc(C(=O)N4CCCC4)n(CCSCCO)c3CC2CN1C(=O)c1ccccc1 (some centres undefined)
57: Cc1cnc(C(=O)Nc2ccccc2F)cn1
58: CCN(CC)C(=O)CN(c1ccc(F)c(Cl)c1)S(C)(=O)=O
59: CCn1nnnc1NC(=O)c1cc(Cl)c(OC)c(Cl)c1
60: CCOc1cc(C2C3=C(CC(C)(C)CC3=O)N(CCCOC)C3=C2C(=O)CC(C)(C)C3)ccc1OC
compound no.	51	52	53	54	55	56	57	58	59	60
Bead autofluor	2385	4146	3046	5553	3437	.	3438	4005	4410	3445
Sa ugtP lethal	-2	4	1	-9	4	0	-2	0	2	5
Mtb hypoxia rep growth	1	13	9	3	0	-18	7	.	-3	1
RN4220 kill	2.2	2.0	6.2	-4.1	-0.7	3.2	3.4	3.6	4.3	3.9
Mtb hypoxia rep	2	17	12	-11	5	-15	8	.	-7	0
BJeLR lethal	1	14	5	-6	.	.	9	1	.	-3
PrP 5UTR inh	-17	16	-15	-21	-15	.	-55	-7	-23	-27

61: C=CCOc1c(Cl)cc(CNc2ccc(N(C)C)cc2)cc1OC
62: CCNC(=O)NC(=O)C(C)Oc1ccc(Br)cc1Br (centres undefined)
63: COC(=O)c1cc(Br)c(=O)n(CCN2CCCCC2)c1
64: Cc1cc(C(=O)NN=C/C=C/c2ccc(Br)cc2)n[nH]1
65: O=c1[nH]c(=O)c2cc([N+](=O)[O-])cc([N+](=O)[O-])c2[nH]1
66: COc1ccc(Cl)cc1NS(=O)(=O)c1cccc(C(=O)NC2CCC(O)CC2)c1 (centres undefined)
67: O=C(Cc1ccccc1[N+](=O)[O-])NCc1ccc2c(c1)OCO2
compound no.	61	62	63	64	65	66	67
Bead autofluor	11157	4956	3204	.	4207	4730	2454
Sa ugtP lethal	9	0	-4	-2	-8	-7	1
Mtb hypoxia rep growth	4	1	7	0	-14	0	1
RN4220 kill	1.0	7.9	2.1	-1.1	12	9.5	-2.8
Mtb hypoxia rep	4	7	8	-1	-11	6	-12
BJeLR lethal	-6	0	-8	.	-1	-3	1
PrP 5UTR inh	-41	-56	-26	.	-16	-19	-50

# Screening results (PubChem)
